Screening results deposited in PubChem by several laboratories.
PKD1 inh: inhibitors of human PKD1 kinase. Q15139. PKD1 kinase fluorescence polarization assay. inhibition, %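 (about 10 µM by stock and volumes)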. hit rate 0.056% among 200,000. AID 797;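 active = inhibition of 50% or more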;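 note: controls were vehicle for no effect and a reference inhibitor for full effect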
Target sequence (Q15139 whole entry, looked up): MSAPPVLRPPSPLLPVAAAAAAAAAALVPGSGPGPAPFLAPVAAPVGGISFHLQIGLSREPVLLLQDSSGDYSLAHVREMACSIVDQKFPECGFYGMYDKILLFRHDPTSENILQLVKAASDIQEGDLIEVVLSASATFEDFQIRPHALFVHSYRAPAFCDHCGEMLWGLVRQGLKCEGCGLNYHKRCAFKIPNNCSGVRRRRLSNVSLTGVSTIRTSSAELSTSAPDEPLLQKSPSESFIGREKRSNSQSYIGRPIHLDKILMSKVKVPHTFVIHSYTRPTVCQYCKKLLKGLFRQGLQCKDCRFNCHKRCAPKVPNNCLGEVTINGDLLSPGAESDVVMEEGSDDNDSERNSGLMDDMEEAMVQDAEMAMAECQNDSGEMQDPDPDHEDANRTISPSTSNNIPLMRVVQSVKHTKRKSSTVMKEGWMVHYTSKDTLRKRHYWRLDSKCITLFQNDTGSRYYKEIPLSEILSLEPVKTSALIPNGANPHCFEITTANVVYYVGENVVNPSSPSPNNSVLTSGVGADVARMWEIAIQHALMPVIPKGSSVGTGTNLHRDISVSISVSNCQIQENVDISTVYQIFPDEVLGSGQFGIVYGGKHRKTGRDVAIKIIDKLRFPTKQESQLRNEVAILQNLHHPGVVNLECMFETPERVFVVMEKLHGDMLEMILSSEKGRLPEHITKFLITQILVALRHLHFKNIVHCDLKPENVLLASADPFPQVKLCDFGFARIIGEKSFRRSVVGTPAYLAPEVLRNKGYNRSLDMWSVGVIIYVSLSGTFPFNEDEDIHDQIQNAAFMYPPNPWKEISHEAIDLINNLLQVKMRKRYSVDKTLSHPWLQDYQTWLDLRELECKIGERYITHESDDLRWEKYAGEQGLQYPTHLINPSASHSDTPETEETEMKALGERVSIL
RGS16-Gao: modulates binding between human RGS16 and Galphao. AID 1441. binding response (% of control), % at 10 µM. O15492+P09471. hit rate 0.38% among 220,000. bead-based flow cytometry RGS16-Galphao binding, fluorescence; actives lie on both sides;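 active = below 25% or above 175%, edge rows of some plates excepted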;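 note: Galphao activated by GDP with aluminum fluoride before binding; 100% = wells without compound and 0% = beads without RGS; some results beyond the cut were filed as inactive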
GALR2 ag: GALR2 (human) receptor agonism | O43603 | GALR2-expressing cells, agonist activation read-out | activation, %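 (tested at 5 µM)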 | hit rate 0.48% among 140,000;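 active = above mean plus 3 SD of all compounds, about 5% in these data, not always enough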;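 note: 0% = vehicle buffer wells and 100% = reference agonist at full effect; tested in CHO reporter cells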
Insulin prom inh: TRM-6 insulin promoter activity inhibition; TRM-6 cells (human fetal islet line), insulin promoter-eGFP reporter, imaging; reporter expression induced with tamoxifen; AID 1273; inhibition, % at 2 µM; hit rate 0.9% among 130,000;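 active = inhibition above the mean plus 3 SD, with well images judged a real hit on visual review, cut at about 60% in these data, passing the limit was not always enough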
HSV replic up: HSV replication enhancement; HSV replication augmentation in cells, fold increase; maximum fold increase; hit rate 0.005% among 220,000;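 active = peak rise of 1.5-fold or more in the series; tested in PC3 cells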;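 note: first round at 10 µM; read as green reporter fluorescence; hits show the peak of a series up to 25 µM; 1 = signal of infected wells without compound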
Insulin prom inh cell count: further read-out of Insulin prom inh, marked with its call; normalized cell count, %; measured here: cell count, toxicity; reference of the scale not given here;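 cells exposed to compound for 48 h; stained nuclei by imaging scaled within each plate; lower means fewer cells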
HSV replic up primary fold: second read-out of HSV replic up, no call of its own (marks repeat the call); fold increase; compound at 10 µM; measured here: primary screen fold increase 10 uM; tested in PC3 cells;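 GFP signal in the first replicate; 1 = infected wells without compound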
The depositor's hits bear a star; i = inactive; . = not tested or not shown. The order is random; about 1.3% have a hit in one of these screens.

SMILES	PKD1 inh	RGS16-Gao	GALR2 ag	Insulin prom inh	Insulin prom inh cell count	HSV replic up	HSV replic up primary fold
COc1ccc(S(=O)(=O)Cc2ccc(C(=O)NC(C)C)o2)cc1	3	68	-1.9	.	.	i	1.1
O=C(CN1C(=O)/C(=C/c2ccccc2F)Sc2ccccc21)N1CCN(c2ccccn2)CC1	4	113	.	-109	100	i	0.9
Cc1nc2cc(NC(=O)Nc3cccc(F)c3)ccc2n1C	.	97	.	.	.	i	0.94
Cn1c(=O)c2c(O)c(Cc3ccccc3)c(=O)[nH]c2n(C)c1=O	-3	109	-2.3	-8	121	i	0.94
COC(=O)c1c(C)[nH]c(C=Nc2ccc(OC)cc2)c1C	.	98	.	.	.	i	1
CSc1nnc(CCCCCNC(=O)OC(C)(C)C)o1	.	90	.	.	.	i	0.89
CCOC(=O)Cc1nnc(Nc2cccc(C)c2)c2ccccc12	0	99	-1.0	26	130	i	0.92
Cc1ccc(S(=O)(=O)N2CCC(C(=O)NNC(=O)c3ccncc3)CC2)cc1	1	101	.	11	110	i	1
O=C(Nc1ccc(OC(F)(F)F)cc1)Nc1cccc([N+](=O)[O-])c1	-3	106	-1.1	.	.	i	0.77
CCOc1ccc2c(CC)cc(=O)oc2c1OCC	0	111	0.1	-8	117	i	0.94
O=C(NN1CCN(Cc2ccccc2)CC1)c1ccc(Cl)cc1	-2	104	.	.	.	i	0.98
COCCNC(=O)c1cc2nc(-c3ccccc3)cc(C)n2n1	7	98	.	21	120	i	1
COc1ccc(/C=N\NC(=O)c2ccc(Cn3cc(Br)c([N+](=O)[O-])n3)o2)c(OC)c1C	-1	113	.	13	125	i	0.98
O=C(Nc1cnc2ccccc2c1)C1COc2ccccc2O1 (configuration not stated)	-13	102	-4.2	-45	91	i	0.89
CN(CCOc1ccccc1)C(=O)c1ccc(OC2CCN(C(=O)C3CC3)CC2)cc1	-5	96	.	.	.	i	0.98
O=c1c(/C=N/Nc2ccccc2)c(Sc2nnnn2-c2ccccc2)nc2ccccn12	10	122	0.1	2	109	.	.
OC(c1cc(-c2ccc(Cl)cc2)nc2ccccc12)C1CCCCN1 (configuration not stated)	.	98	.	.	.	i	0.62
CSc1cccc(NC(=O)CN(c2cccc(C)c2)S(C)(=O)=O)c1	-9	107	-1.2	40	101	i	0.78
COc1ccccc1N=C1SCC(=O)N1c1ccccc1OC	-4	99	-0.6	6	128	i	0.98
O=C(OCC(=O)N1CCc2ccccc21)c1cccnc1	-6	106	0.3	-3	50	i	0.94
COC(=O)CSC1=C(C#N)C(c2sccc2C)CC(=O)N1 (configuration not stated)	-5	35	-0.2	36	91	i	0.87
Cc1csc(NC(=O)C2CCN(C(=O)CSc3nnc(C)n3Cc3ccccc3)CC2)n1	-6	106	-0.2	.	.	i	0.94
O=C(NCc1ccc(F)cc1)c1cc(-c2cccs2)on1	4	132	-3.4	.	.	i	0.94
Nc1nc2c(s1)CC(c1ccccc1)CC2 (configuration not stated)	3	110	-0.5	-6	66	i	1.1
CCCCCC1CCC(c2nnc(SCC(C)=O)o2)CC1 (configuration not stated)	-8	98	.	.	.	i	1.1
(continued)
SMILES	PKD1 inh	RGS16-Gao	GALR2 ag	Insulin prom inh	Insulin prom inh cell count	HSV replic up	HSV replic up primary fold
CCOc1ccc(-n2ccnc2SCC(=O)NCc2ccc3c(c2)OCO3)cc1	-9	102	-0.6	-18	119	i	1.1
C=CCN(c1ccccc1C(=O)O)S(=O)(=O)c1ccc(C)cc1	0	99	.	-63	158	i	1
CCCN1C(=O)C(Cc2nc3ccccc3c(=O)n2C)c2ccccc21 (configuration not stated)	3	95	-1.5	-29	131	i	1.1
O=S1(=O)C=C(N2CCOCC2)c2ccccc21	4	110	-1.2	.	.	i	1.1
O=C(Nc1cccc(Cl)c1)Nc1nnc(-c2ccccc2)o1	-7	104	-2.8	-5	61	i	0.98
COC(=O)NC1CSCC1OC(=O)CCN1C(=O)c2ccccc2C1=O (configuration not stated)	-7	105	-1.1	-11	97	i	1.1
O=c1cc(N2CCc3ccccc32)[nH]c(=O)n1-c1ccccc1Cl	-6	96	.	-6	96	i	1.2
COC(=O)CSc1ncnc2c1sc1nc(N3CCOCC3)c3c(c12)CCCC3	-4	105	1.9	13	126	i	1
COc1cc(CN2CCN(c3cccc(C)c3C)CC2)cc(Br)c1O	5	106	-1.2	-27	59	i	0.93
NS(=O)(=O)c1ccc(Sc2ccccn2)c([N+](=O)[O-])c1	.	101	.	.	.	i	1.4
C=CCn1c(SCC(=O)Nc2cc(C)ccc2OC)nnc1-c1ccco1	13	99	0.8	-56	49	i	0.91
CC(C)Oc1cccc(C(=O)N2CCCC2)c1	-6	94	.	.	.	i	0.97
Cc1ncsc1C(=O)Nc1nc2c(s1)CC(C)CC2 (configuration not stated)	-1	104	-2.4	.	.	i	1.1
CCn1cc(CNC(=O)CSc2nc(-c3ccc(OC)c(OC)c3)cc(C(F)(F)F)n2)c(C)n1	-11	94	0.2	-13	87	i	0.82
C/C(=N\NC(=O)c1cccnc1)c1cc(C)oc1C	1	94	-0.4	-23	93	i	1.1
CC(C)CNC(=O)c1ccccc1NC(=O)Nc1ccccc1	-5	94	-2.6	29	115	i	0.87
CC(C)c1csc2nc3n(c(=O)c12)CCCCC3	-6	100	.	.	.	i	0.93
Cc1ccccc1C(=O)NCc1nnc(SCC(=O)N2c3ccccc3Sc3ccccc32)n1C	-10	101	-0.9	-25	63	i	0.98
Cc1sc(-c2ccccn2)nc1OC(=O)c1ccc(Cl)cc1	1	102	-1.2	11	110	i	0.98
Cc1nnc(SCC(=O)Nc2cccc(S(=O)(=O)NC3=NCCCCC3)c2)n1Cc1ccccc1	-5	105	.	-33	54	i	0.75
O=C(CCl)Nc1cc(SCC(O)CO)cc([N+](=O)[O-])c1 (configuration not stated)	-4	102	.	.	.	i	0.92
O=C(COc1ccc(Cl)cc1)Nc1c(-c2cccs2)nc2ccccn12	-7	101	-1.1	.	.	i	0.87
CC(=O)N1C(=O)C2(C(C#N)=C(N)Oc3n[nH]c(-c4ccccn4)c32)c2ccccc21 (configuration not stated)	3	105	-0.5	-7	119	.	.
CCn1c(CCC(=O)Nc2nc3c(s2)CCCC3)nc2cc(S(=O)(=O)N(C)C)ccc21	-11	91	-0.6	-6	105	i	0.78
CCCCC1=CC2=CC(=O)C(C)(OC(=O)CC)C(=O)C2=CN1CCOC (configuration not stated)	.	105	.	.	.	i	0.8

Some of the entries so far, with each value named.
O=c1cc(N2CCc3ccccc32)[nH]c(=O)n1-c1ccccc1Cl
  PKD1 inh = -6
  RGS16-Gao = 96
  GALR2 ag = .
  Insulin prom inh = -6
  Insulin prom inh cell count = 96
  HSV replic up = i
  HSV replic up primary fold = 1.2

CC(=O)N1C(=O)C2(C(C#N)=C(N)Oc3n[nH]c(-c4ccccn4)c32)c2ccccc21 (configuration not stated)
  PKD1 inh = 3
  RGS16-Gao = 105
  GALR2 ag = -0.5
  Insulin prom inh = -7
  Insulin prom inh cell count = 119
  HSV replic up = .
  HSV replic up primary fold = .

C/C(=N\NC(=O)c1cccnc1)c1cc(C)oc1C
  PKD1 inh = 1
  RGS16-Gao = 94
  GALR2 ag = -0.4
  Insulin prom inh = -23
  Insulin prom inh cell count = 93
  HSV replic up = i
  HSV replic up primary fold = 1.1

CCOc1ccc(-n2ccnc2SCC(=O)NCc2ccc3c(c2)OCO3)cc1
  PKD1 inh = -9
  RGS16-Gao = 102
  GALR2 ag = -0.6
  Insulin prom inh = -18
  Insulin prom inh cell count = 119
  HSV replic up = i
  HSV replic up primary fold = 1.1

(further entries)
SMILES	PKD1 inh	RGS16-Gao	GALR2 ag	Insulin prom inh	Insulin prom inh cell count	HSV replic up	HSV replic up primary fold
CC(C)Cn1c(SCC(=O)NC(=O)NC2CCCC2)nc2ccccc21	0	104	0.2	.	.	i	0.91
Cc1cc(C)nc(Nc2ccc(C(=O)O)cc2)n1	-4	105	0.0	20	122	i	0.82
CCC(C)c1ccc(NC(=S)NCCn2cc(Cl)cn2)cc1 (configuration not stated)	0	94	.	.	.	i	0.96
COCCCNC(=O)COC(=O)c1ccc(-c2nc3ccccc3s2)s1	0	99	.	.	.	i	0.84
O=C(O)COCC(=O)Nc1ccc(-n2nc(C(F)(F)F)cc2-c2cccs2)cc1	.	104	.	.	.	i	1.1
C=CCNS(=O)(=O)c1ccc(N2C(=O)c3ccccc3C2=O)cc1	1	104	.	.	.	i	0.93
CCCN1CCN(C(=O)c2ccccc2-c2nc3ccccc3s2)CC1	-1	89	.	.	.	i	0.91
NC(=O)C1(N2CCCCC2)CCN(S(=O)(=O)c2cc(Cl)sc2Cl)CC1	.	98	.	.	.	i	0.96
c1csc(CNCCN2CCOCC2)c1	-2	129	-0.3	10	81	i	1
COc1ccc(-c2nn(-c3ccccc3)cc2/C=N/Nc2ccccn2)cc1OC	-3	112	-0.9	40	194	i	0.73
CCOC(=O)C1=C(CC)Nc2ccccc2N/C1=N\S(=O)(=O)c1cc(Br)ccc1Br	-6	100	.	19	64	i	0.9
COc1ccc2cc1Oc1ccc(cc1)C[C@H]1c3c(cc4c(c3Oc3cc5c(cc3OC)CCN(C)[C@@H]5C2)OCO4)CCN1C	.	103	.	.	.	i	0.67
COc1cccc(-c2nnc3sc(-c4ccccc4)nn23)c1	-7	98	-0.5	.	.	i	0.63
COC(=O)c1c(-c2ccc(F)cc2)csc1NC(=O)C1CCCO1 (configuration not stated)	2	99	.	.	.	i	0.88
Cc1nc2cc(N3CCN(C)CC3)c(NC(=O)Cc3ccccc3)cc2c(=O)n1Cc1ccccc1	2	103	-0.4	-67	183	i	0.94
CCc1nc(Nc2ccc(OC)c(OC)c2)c2nnn(Cc3ccccc3Cl)c2n1	-9	101	-1.8	37	103	i	0.88
Cc1cccc(NC(=O)c2cccs2)n1	-4	103	-0.6	-57	76	i	0.84
CC(=O)Nc1ccc(S(=O)(=O)N=S(C)(C)=O)cc1	-4	104	-1.8	3	118	i	0.9
CCOC(=O)N1CCN(CC(O)COCCC23CC4CC(CC(C4)C2)C3)CC1 (configuration not stated)	-6	113	-0.5	4	101	i	0.95
Cc1ccc(S(=O)(=O)c2cccc(S(=O)(=O)N3CCOCC3)c2)cc1S(=O)(=O)N1CCOCC1	-6	94	-1.8	-24	118	i	0.99
CCC(C)NC(=O)COC(=O)c1csc2c1CCCC2 (configuration not stated)	-11	96	0.0	.	.	i	1.1
COc1ccc(/C(O)=C2\C(=O)C(=O)N(Cc3ccco3)C2c2ccc(OC)cc2OC)cc1 (configuration not stated)	-3	97	-3.3	-15	96	i	1.1
O=C(CCCC(=O)N/N=C/c1ccccc1C(=O)O)N/N=C/c1ccccc1C(=O)O	.	106	.	.	.	i	0.95
CC(=O)c1cccc(S(=O)(=O)N2CCCC(c3nc(-c4ccc(C)o4)no3)C2)c1 (configuration not stated)	4	101	-0.9	-38	114	i	1.1
CCCSc1ccc(-c2nn(-c3ccccc3)cc2/C=C(/C#N)C(=O)NCCCOC)cc1	-7	101	-1.0	-10	82	i	0.94
The listing continues.
SMILES	PKD1 inh	RGS16-Gao	GALR2 ag	Insulin prom inh	Insulin prom inh cell count	HSV replic up	HSV replic up primary fold
O=C(CCC(=O)NC1CCN(Cc2ccccc2)CC1)NCc1ccco1	6	102	-0.7	.	.	i	0.97
COc1ccc2[nH]cc(S(=O)(=O)c3ccc(F)cc3)c(=O)c2c1	-7	101	-0.7	.	.	i	0.87
CN(CCC#N)C(=S)NC(=O)c1ccc(S(=O)(=O)N2CCOCC2)cc1	1	99	.	57	72	i	1
CCN(CC)c1nc(N2CCOCC2)c(C#N)c2c1CN(C)CC2	-4	101	-0.9	61	87	i	1
COc1cc(/C=C(/NC(=O)c2ccccc2)C(=O)N2CCN(C)CC2)c([N+](=O)[O-])cc1OC	-7	138	-0.5	-23	86	i	1
OCCC#Cc1ccc(CN2CCN(Cc3ccccc3)C(CCO)C2)cc1 (configuration not stated)	-4	98	.	.	.	i	0.97
Cc1ccc(C)c(N2CCN(CCCNC(=O)Cn3cccc3C(=O)c3ccccc3)CC2)c1	4	92	.	.	.	i	0.75
Cc1ccc2[nH]c3c(=O)n(CCc4cnc[nH]4)cnc3c2c1	-8	112	0.1	42	104	i	1
NNC(=O)c1ccc(CN2C(=O)c3cccc4cccc2c34)cc1	-1	116	.	.	.	i	0.69
COc1ccc(C(=O)NCCc2nnc3ccc(SCC(=O)Nc4cc(C)on4)nn23)cc1	-14	97	.	17	122	i	1

Record cards, from the list above. Screens in order: PKD1 inh, RGS16-Gao, GALR2 ag, Insulin prom inh, Insulin prom inh cell count, HSV replic up, HSV replic up primary fold
COc1ccc2[nH]cc(S(=O)(=O)c3ccc(F)cc3)c(=O)c2c1 is listed with -7, 101, -0.7, ., ., i, 0.87
OCCC#Cc1ccc(CN2CCN(Cc3ccccc3)C(CCO)C2)cc1 (configuration not stated) is listed with -4, 98, ., ., ., i, 0.97
NNC(=O)c1ccc(CN2C(=O)c3cccc4cccc2c34)cc1 is listed with -1, 116, ., ., ., i, 0.69
